VACV Venus inh: vaccinia inhibition (Venus reporter); Vaccinia virus Venus reporter expression, fluorescence; Potency, µM (top dose mostly 36.5 µM), for inactives: at the highest dose activity change, negative = inhibition, most hits filed as inhibitors; 330,000 compounds, 0.46% hits; AID 720580; active means well fitted inhibition curve with a large enough effect; inconclusive means small, poorly fitted or top-dose-only effect; inactive means no such curve, though single readings can be large or run the other way; tested in A549 cells; further: nearly all actives have a fitted effect of over 30% in size; inactives centre near -10
VACV mCherry inh: inhibitors of vaccinia virus infection (mCherry reporter signal); Vaccinia virus mCherry reporter infection, fluorescence; about a quarter of the inactives have no number; Potency, µM (series often up to 36.5 µM), for the others: at the highest dose activity change, negative = inhibition, hits mostly inhibitors; 310,000 compounds, 0.63% hits; AID 720579; active = well fitted inhibition curve with a large enough effect; inconclusive = small, poorly fitted or top-dose-only effect; inactive = no such curve, though single readings can be large or run the other way; tested in A549 cells; further: nearly all actives have a fitted effect of over 35% in size; inactives centre near -10
* marks the source's active call; other numbers are inactive results; i = inactive; ? = inconclusive; · = not tested or not shown; & = joins results of further samples; [ ] = another dose, or the depositor's remark. On the % scale 0 is the no-effect control and ±100 the full control effect; potency means the concentration at half of the fitted maximal effect.

| molecule | VACV Venus inh | VACV mCherry inh |
| --- | --- | --- |
| O=C(NS(=O)(=O)Oc1ccc(F)c(Cl)c1)OC[C@@H]1CCCN2CCCCC12 (some centres not stated) | -7.2% | i |
| Cc1cccc(C)c1NC(=O)C(CCc1ccccc1)n1c(=O)c(-c2ccccc2)nc2ccccc21 (configuration not stated) | -16.4% | ? |
| CC(C)CCNC(=O)CN(C(=O)CCC(=O)Nc1ccccn1)c1ccc2c(c1)OCCO2 | -9.1% | -9.3% |
| C/C(=N\NC(=O)CN(c1ccccc1Br)S(C)(=O)=O)c1cccs1 | 4.5% | -11.1% |
| Cc1ccc(/C(O)=C2/C(=O)C(=O)OC2c2ccc(Cl)cc2)cc1 (configuration not stated) | 4.5% | -7.4% |
| O=C(CSc1ccccc1)NNC(=O)c1ccncc1 | -4.0% | -20.1% |
| CCOc1ccc(OCCOC(=O)CN(C)S(=O)(=O)c2ccc(NC(C)=O)cc2)cc1 | -2.8% | -9.1% |
| O=C1C(Cl)=C(Nc2ccc(F)cc2)C(=O)N1CCc1ccccc1 | -6.4% | -6.4% |
| Cc1ccc(-c2cnn(-c3cccc([N+](=O)[O-])c3)c2N)cc1 | -25.1% | ? |
| O=C(/C=C\N1CCOCC1)c1ccc(Br)cc1 | -18.6% | i |
| O=C(O)c1ccccc1NC(=O)N1CCOCC1 | 0.4% | i |
| COc1ccc(-n2c(COc3cccc4ccccc34)nnc2SCC#N)cc1 | -15.9% | i |
| CN(C)S(=O)(=O)c1ccc(C(=O)OCC(=O)Nc2cccnc2Cl)cc1 | -9.2% | -1.0% |
| CCOC(=O)c1sc2ccccc2c1S(=O)(=O)N1CCN(c2cccc(C)c2)C(C)C1 (configuration not stated) | -9.6% | -12.7% |
| O=C(C1=C(O)C(=O)N(c2ncccn2)C1c1cccs1)c1ccco1 (configuration not stated) | 0.5% | -7.1% |
| CCC1(c2ccccc2)NC(=O)N(CC(=O)Nc2ccc(S(=O)(=O)Nc3ncccn3)cc2)C1=O (configuration not stated) | -8.8% | -13.9% |
| CCCCCn1c(=O)[nH]c2cc(C(=O)Nc3cc(C)cc(C)c3)ccc2c1=O | -1.4% | 1.9% |
| COc1ccc(CNC(=O)Cn2nc(-c3ccc4c(c3)OCCO4)ccc2=O)cc1 | -14.5% | i |
| CC1CC1C(=O)OCC(=O)Nc1ccc(S(=O)(=O)N2CCOCC2)cc1 (configuration not stated) | -3.9% | -14.4% |
| Cc1cc(=O)[nH]c(-c2cccnc2)n1 | -2.8% | 3.7% |

Of the compounds above, these have four or more nitrogen atoms:
| molecule | VACV Venus inh | VACV mCherry inh |
| --- | --- | --- |
| CC(C)CCNC(=O)CN(C(=O)CCC(=O)Nc1ccccn1)c1ccc2c(c1)OCCO2 | -9.1% | -9.3% |
| Cc1ccc(-c2cnn(-c3cccc([N+](=O)[O-])c3)c2N)cc1 | -25.1% | ? |
| COc1ccc(-n2c(COc3cccc4ccccc34)nnc2SCC#N)cc1 | -15.9% | i |
| CCC1(c2ccccc2)NC(=O)N(CC(=O)Nc2ccc(S(=O)(=O)Nc3ncccn3)cc2)C1=O (configuration not stated) | -8.8% | -13.9% |

Four entries drawn at random from those above, as already listed:
| molecule | VACV Venus inh | VACV mCherry inh |
| --- | --- | --- |
| CN(C)S(=O)(=O)c1ccc(C(=O)OCC(=O)Nc2cccnc2Cl)cc1 | -9.2% | -1.0% |
| C/C(=N\NC(=O)CN(c1ccccc1Br)S(C)(=O)=O)c1cccs1 | 4.5% | -11.1% |
| O=C(O)c1ccccc1NC(=O)N1CCOCC1 | 0.4% | i |
| CCOc1ccc(OCCOC(=O)CN(C)S(=O)(=O)c2ccc(NC(C)=O)cc2)cc1 | -2.8% | -9.1% |

Quoted from above, three compounds:
| molecule | VACV Venus inh | VACV mCherry inh |
| --- | --- | --- |
| O=C(NS(=O)(=O)Oc1ccc(F)c(Cl)c1)OC[C@@H]1CCCN2CCCCC12 (some centres not stated) | -7.2% | i |
| Cc1cccc(C)c1NC(=O)C(CCc1ccccc1)n1c(=O)c(-c2ccccc2)nc2ccccc21 (configuration not stated) | -16.4% | ? |
| CC(C)CCNC(=O)CN(C(=O)CCC(=O)Nc1ccccn1)c1ccc2c(c1)OCCO2 | -9.1% | -9.3% |

Back to the main list, repeating the 2 entries before the break.
| molecule | VACV Venus inh | VACV mCherry inh |
| --- | --- | --- |
| CC1CC1C(=O)OCC(=O)Nc1ccc(S(=O)(=O)N2CCOCC2)cc1 (configuration not stated) | -3.9% | -14.4% |
| Cc1cc(=O)[nH]c(-c2cccnc2)n1 | -2.8% | 3.7% |
| CCOC(=O)/C=c1\s/c(=C\c2ccc(C(F)(F)F)cc2)c(=O)n1CC(=O)NCc1ccco1 | -13.1% | -10.6% |
| CC1CCCN(Cc2c(O)ccc3c4c(c(=O)oc23)CCCC4)C1 (configuration not stated) | -8.3% | -3.0% |
| COC(=O)C1=C(SC)N(c2ccccc2)C(c2ccccc2)CC1=O (configuration not stated) | -6.4% | -13.8% |
| O=C1N(Cc2ccccc2)c2ccccc2C12OCCO2 | -0.7% | i |
| CCc1nn(CC(=O)NCCc2ccc(Cl)cc2)c(=O)c2cc3c(OC)cccc3n12 | -18.0% | -10.2% |
| Cc1cc(C)n(CC(=O)N2CCCC(N3CCN(c4ccccc4C)CC3)C2)n1 (configuration not stated) | -18.0% | i |
| Cc1ccc(NC(=O)C2CCN(C(=O)c3ccco3)CC2)cc1 | -4.4% | -1.6% |
| CCCCCCC(=O)N/N=C/Cc1ccccc1 | -9.9% | -13.2% |
| CN1C(=S)SC(/[N+]([O-])=C/c2c(F)cccc2Cl)C1(C)C (configuration not stated) | -3.6% | i |
| CC(C)CC1NC(=O)c2cc3ccccc3cc2-n2c1nc1ccc(Cl)cc1c2=O (configuration not stated) | -23.8% | -17.8% |
| COc1cc2c(cc1OC)C(COc1cc(C)cc(C)c1)N(C(=O)C(C)(C)C)CC2 (configuration not stated) | 2.5% | -2.5% |
| CCCCOc1c(Br)cc(/C=C2\N=C(C)OC2=O)cc1OCC | -5.4% | -6.0% |
| CCc1nc2ccc(C(=O)N3CCN(c4ccccc4)CC3)cc2nc1CC | -13.3%&-8.3% | -6.0%&-13.4% |
| Cc1ccccc1NC(=O)c1sc(NC(=O)COc2ccccc2)c(C#N)c1C | -23.4% | -10.4% |
| Cc1ccc(C2=NN(C(=O)C3CCCO3)C(c3ccco3)C2)cc1 (configuration not stated) | -25.8% | ? |
| CCOC(=O)C1=C(COC(=O)CNC(=O)c2cc(OC)c(OC)c(OC)c2)NC(=O)NC1C (configuration not stated) | -10.2% | -1.6% |
| O=C(Cn1c2ccc(F)cc2c2nc3n(c(=O)c21)CCS3)N1CCCC1 | -11.8% | 0.5% |
| COc1ccc(N2CCN(C(CNC(=O)c3c(F)cccc3F)c3ccc4c(c3)OCO4)CC2)cc1 (configuration not stated) | 2.1% | 4.7% |
| O=C(NN1C(=O)c2cc(Br)ccc2NC1c1cc(Br)cc(Br)c1O)c1ccncc1 (configuration not stated) | -6.7% | -20.0% |
| O=C(CN1CCOCC1)NC1CC2CCC1C2 (configuration not stated) | -7.7% | i |

(further entries)
| molecule | VACV Venus inh | VACV mCherry inh |
| --- | --- | --- |
| CC(=O)Nc1ccc(N(C(=O)c2ccco2)C(C(=O)NC2CCCC2)c2ccc(N(C)C)cc2)cc1 (configuration not stated) | -11.9% | -8.0% |
| CCCN=C1N(CC)C[C@@H]2[C@@H]3C(=O)N(Cc4ccccc4)C(=O)[C@@H]3[C@](Cc3ccccc3)(C(=O)OC)N12 | -4.9% | i |
| CCC1Oc2ccccc2N(CC(=O)NCCC2=CCCCC2)C1=O (configuration not stated) | -8.8% | -29.4% |
| Cc1ccccc1-c1ccc2c(c1)O[C@@H](CN(C)C(=O)Nc1ccc(C(F)(F)F)cc1)[C@H](C)CN([C@@H](C)CO)S2(=O)=O | ? | ? |
| CCN(CC)S(=O)(=O)N1CCC(C(=O)NCc2ccc3c(c2)OCO3)CC1 | -7.4% | -7.0% |
| CCc1cccc(C)c1NC(=O)COC(=O)CCn1c(C)csc1=O | -6.7% | i |
| CCN1/C(=c2/s/c(=C3/C(=O)N(c4ccccc4)N=C3C)n(CC)c2=O)C=Cc2ccccc21 | -2.3% | 26.2% |
| CCOC(=O)Cc1ccc(NC(=O)N2CCOc3ccc(C)cc32)cc1 | -12.1% | -14.2% |
| CC1CCCC(C)N1C(=O)c1ccc(CS(=O)(=O)c2ccccc2)cc1 (configuration not stated) | -11.8% | -1.8% |
| O=C(O)C1=NN(c2ccccc2)C(=O)CC1 | -7.6% | -0.6% |
| C[C@H](NC(=O)c1nc[nH]c1C(=O)N[C@@H](C)c1ccccc1)C(=O)OC(C)(C)C | -22.5% | ? |
| O=C(COC(=O)c1ccccc1C(=O)c1ccc(Cl)cc1)NCCc1ccccc1 | ? | ? |
| CC(=O)Nc1cccc(-c2ccnc3c2CC(C(=O)Nc2cccnc2)O3)c1 (configuration not stated) | -1.4% | 10.9% |
| Cc1ccc(C(=O)NC(=S)N2CCN(c3ccccc3F)CC2)cc1 | ? | ? |
| Cc1cc(NC(=O)CCNS(=O)(=O)c2ccc3[nH]c(=O)oc3c2)ccc1Br | 15.2%[7.34 µM] | 7.4%[7.34 µM] |
| CC(C)(C)NC(=O)C(c1ccc(C#N)cc1)n1c(=O)c(-c2cc3ccccc3[nH]2)nc2ccccc21 (configuration not stated) | -29.8% | i |
| CCOc1ccc(N(CC)S(=O)(=O)N2CCCC(C(=O)NCc3ccccc3Cl)C2)cc1 (configuration not stated) | -17.7% | -10.4% |
| O=C(NC1CCCC1)C(c1cccnc1)N(C(=O)c1ccco1)c1cccc(F)c1 (configuration not stated) | -1.7% | -1.4% |
| Cc1c(NC(=O)C(Sc2ccccc2)c2ccccc2)cccc1[N+](=O)[O-] (configuration not stated) | -14.9% | · |
